Screening data from PubChem.
FGF22 binding = binders of human FGF22 protein, primary screen, FGF22 synaptogenesis inhibitor project, biophysical, thermal shift, single point; recombinant FGF22 thermal shift, SYPRO orange fluorescence; percent of sucrose octasulfate shift, DMSO zero; calls only at 9.99 µM; AID 651658, 2012; 340,000 tested, 1.5% active;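 active = melting point raised past a set limit in the mean and every replicate; three in four hits are not shown here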
Target sequence (Q9HCT0 whole entry, looked up): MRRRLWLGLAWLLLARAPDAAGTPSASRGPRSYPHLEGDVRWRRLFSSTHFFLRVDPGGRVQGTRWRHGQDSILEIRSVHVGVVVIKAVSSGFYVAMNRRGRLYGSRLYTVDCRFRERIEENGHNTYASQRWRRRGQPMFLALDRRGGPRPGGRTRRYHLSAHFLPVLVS
Ecoli rRNA inh = reduced GFP signal of wild-type E. coli, primary screen, bacterial rRNA inhibitor project, GFP/RFP fluorescence, OD600, single point; GFP signal change (wild-type ribosome), % (test concentration not listed); AID 720706, 2013; E. coli WT GFP vs humanized-ribosome RFP mutants, 24 h; stronger effect = lower value; DMSO median 0, no signal -100; 350,000 tested, 1.6% active;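 active = significant combined selectivity score with lowered wild-type GFP, culture density cut under 30%, mutant RFP and density less affected; inactive = any of these conditions unmet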; also: one replicate is shown; some compounds called inactive have numbers as strong as hits
AF4-AF9 inh = inhibitors of AF4 peptide binding to AF9, primary screen, biochemical, AlphaScreen, biotin-AF4 peptide, FLAG-AF9, single point; Protein AF-9 (Homo sapiens), P42568; inhibition, % at 10 µM; 350,000 tested, 0.47% active; AID 651704, 2012;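 active = every replicate reaching a set inhibition limit, whatever the replicate mean, cut at about 25% in these data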;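 also: 0% = plate neutral control median and 100% = total signal loss; the record names both 10 and 1 µM as test concentration; the first replicate is given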
Target sequence (P42568 whole entry, looked up): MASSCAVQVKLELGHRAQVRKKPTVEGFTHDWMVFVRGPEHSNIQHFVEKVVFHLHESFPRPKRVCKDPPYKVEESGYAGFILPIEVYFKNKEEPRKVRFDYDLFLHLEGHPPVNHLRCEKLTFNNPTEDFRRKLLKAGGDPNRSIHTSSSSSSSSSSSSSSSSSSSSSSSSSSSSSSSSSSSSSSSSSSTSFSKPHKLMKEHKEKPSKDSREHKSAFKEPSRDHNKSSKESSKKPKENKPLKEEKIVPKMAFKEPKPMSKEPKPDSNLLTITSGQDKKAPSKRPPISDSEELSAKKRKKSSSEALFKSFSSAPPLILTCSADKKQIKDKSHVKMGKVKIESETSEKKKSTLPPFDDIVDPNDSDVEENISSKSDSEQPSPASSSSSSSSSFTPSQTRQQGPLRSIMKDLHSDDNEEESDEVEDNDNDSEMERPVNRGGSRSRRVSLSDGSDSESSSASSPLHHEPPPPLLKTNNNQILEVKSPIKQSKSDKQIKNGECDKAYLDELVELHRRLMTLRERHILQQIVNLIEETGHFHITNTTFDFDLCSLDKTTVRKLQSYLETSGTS
Ecoli rRNA inh OD600 = further read-out of Ecoli rRNA inh, marked with its call; OD600 change, %; measured here: OD600 growth;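 optical density of the mix in the first replicate; 0 = DMSO median and -100 = no signal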
Ecoli rRNA inh RFP = further read-out of Ecoli rRNA inh, marked with its call; RFP signal change, %; measured here: RFP humanized mutant strains;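 first replicate; 0 = DMSO median and -100 = no signal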
Active calls of the source: *; i = inactive. Only part of the results is shown. The share of hits here may be higher or lower than overall.

SMILES	FGF22 binding	Ecoli rRNA inh	Ecoli rRNA inh OD600	Ecoli rRNA inh RFP	AF4-AF9 inh
COc1ccc(NC(=O)N(C)C[C@@H]2Oc3cc(-c4ccc(C)cc4)ccc3S(=O)(=O)N([C@@H](C)CO)C[C@H]2C)cc1	i	4	-10	1.0	4.4
C[C@@H]1CN([C@H](C)CO)C(=O)c2cc(NC(=O)c3ccccc3)ccc2O[C@@H](C)CCCCO[C@@H]1CN(C)S(=O)(=O)c1ccc(F)cc1	i	-3	0	0.5	-0.6
CN(C)CCN1CCN(C(c2cc3ccccc3o2)c2nnnn2C(C)(C)C)CC1 (configuration not stated)	i	20	9	-1.0	0.5
C[C@H](CO)N1C[C@H](C)[C@@H](CN(C)Cc2ccc3c(c2)OCO3)Oc2ccc(NC(=O)CCCCCC(=O)Nc3ccccc3N)cc2C1=O	i	-4	-4	1.3	-8.3
N#CCc1ccc(-c2cccc3nccn23)cc1	i	-1	-3	-10	-3.5
O=C(C[C@@H]1C[C@H]2c3cc(NC(=O)c4cccnc4)ccc3O[C@H]2[C@@H](CO)O1)NCc1cccc(F)c1	i	2	11	-1.3	-0.3
O=C(C[C@H]1C=C[C@H](NC(=O)c2ccc3c(c2)OCO3)[C@@H](CO)O1)NCc1ccc(F)cc1	i	2	11	-2.7	-2.3
Cc1ccc(S(=O)(=O)N(C)C[C@H]2Oc3c(NC(=O)CCCCCC(=O)Nc4ccccc4N)cccc3C(=O)N([C@H](C)CO)C[C@H]2C)cc1	i	-3	-3	-1.1	-2.9
C=CCn1c(SCC(=O)Nc2cc(C)on2)nnc1-c1ccncc1	i	8	19	-2.2	-1.1
COC[C@H](NS(=O)(=O)c1ccc(Br)cc1F)[C@@H](O)c1ccccc1	i	3	-20	1.1	0.3
OC(c1ccc2c(c1)OCO2)c1ncc(-c2ccc(Cl)cc2)[nH]1 (configuration not stated)	i	5	-4	-1.5	11
CC(C)N1CC2(CC(c3ccccc3F)=NO2)CN1C(=O)c1ccco1 (configuration not stated)	i	-5	-2	-1.4	-3.7
CCc1cc2c(SCC(=O)NC3CCCC3)ncnc2s1	i	-7	-9	6.0	0.6
CN(C)CC#Cc1ccc([C@H]2[C@@H](CO)N3CCCCN(S(=O)(=O)c4ccccc4F)C[C@H]23)cc1	i	-3	1	-0.4	9.5
CCCc1cn(CC[C@H]2CC[C@@H](NC(=O)C3CCC3)[C@@H](CO)O2)nn1	i	-2	2	2.7	-2.9
CCNC(=O)C[C@H]1CC[C@H]2[C@@H](COC[C@@H](O)CN2C(=O)C2CCCC2)O1	i	3	-1	3.0	-2.2
Cc1ccccc1-c1cc2nc(Nc3ccc(F)cc3)n(C)c(=O)c2s1	i	-12	-48	49	1.2
C[C@@H]1CN([C@@H](C)CO)S(=O)(=O)c2ccc(C#Cc3ccncc3)cc2O[C@H]1CN(C)S(=O)(=O)c1ccccc1	i	-2	-3	10	5.2
C[C@H](NC(=O)[C@H]1N[C@H]2c3ccc(-c4ccncc4)c(=O)n3C[C@H]2[C@@H]1CO)c1ccccc1	i	0	5	-0.4	-0.4
COc1cc(OC)nc(Nc2nc(C(C)N)cs2)n1 (configuration not stated)	i	10	15	14	0.9
Cc1ccc(S(=O)(=O)N(C)C[C@@H]2Oc3ccc(NC(=O)c4ccncc4)cc3CC(=O)N([C@H](C)CO)C[C@@H]2C)cc1	i	-4	-4	0.4	1.0
C[C@@H]1CN([C@@H](C)CO)C(=O)c2cc(NC(=O)CCN3CCOCC3)ccc2O[C@@H]1CN(C)S(=O)(=O)c1cn(C)cn1	i	0	10	-1.6	-1.1
COc1ccc(NC(=O)N(C)C[C@@H]2Oc3ccc(NS(=O)(=O)c4cn(C)cn4)cc3CC(=O)N([C@@H](C)CO)C[C@@H]2C)cc1	i	5	3	-2.0	-3.9
CCOC(=O)[C@@H]1CSCCS(=O)(=O)N1C(=O)[C@H](Cc1ccccc1)NC(=O)OC(C)(C)C	i	4	-4	0.8	-0.7
O=C(C[C@H]1CC[C@@H]2[C@H](COC[C@@H](O)CN2S(=O)(=O)c2ccc(Cl)cc2)O1)N[C@@H]1CCN(Cc2ccccc2)C1	i	-5	-9	3.5	0.2
(continued)
SMILES	FGF22 binding	Ecoli rRNA inh	Ecoli rRNA inh OD600	Ecoli rRNA inh RFP	AF4-AF9 inh
CC(O)(c1ccccc1)c1nc(-c2cccc(C(F)(F)F)c2)cs1 (configuration not stated)	i	-58	-77	-19	-6.2
N#C[C@@H]1[C@H](c2ccc(-c3cccc(F)c3)cc2)[C@@H](CO)N1C(=O)NC1CCCC1	i	-7	-58	1.1	-0.8
C[C@@H]1CN([C@@H](C)CO)C(=O)c2cc(NC(=O)CCC(F)(F)F)ccc2O[C@@H](C)CCCCO[C@H]1CN(C)S(=O)(=O)c1ccc(F)cc1	i	0	-2	1.9	-5.7
O=C(NCCNC(=O)c1ccc(Cl)cc1Cl)c1ccc(Cl)cc1Cl	i	3	10	-1.4	-8.2
C[C@@H]1CN([C@H](C)CO)C(=O)Cc2cc(NS(=O)(=O)c3ccc(Cl)cc3)ccc2O[C@H]1CN(C)S(=O)(=O)c1cccs1	i	-6	3	2.4	1.2
COc1cc(C2CC(=O)Oc3cc(OC)c(OC)c(OC)c32)cc(OC)c1OC (configuration not stated)	i	12	7	3.8	1.0
CC(C)n1c(=O)c2ccccc2n1Cc1cn(-c2ccccc2)nn1	i	-21	-10	-4.5	-0.3
Cc1nc(C)c(-c2csc(Nc3ccc(Cl)cn3)n2)s1	i	1	-5	1.1	-3.0
CCNC(=O)C[C@@H]1CC[C@@H]2[C@@H](COc3ccc(NC(=O)Cc4ccccc4)cc3C(=O)N2C)O1	i	2	5	0.4	-0.7
C[C@H]1CN([C@@H](C)CO)C(=O)c2cc(C#CC(C)(C)O)cnc2O[C@H]1CN(C)C(=O)C1CCC1	i	6	9	-3.5	-5.4
CC1=C(C(=O)N(C)C)CC(CC(=O)NCCCN(C)C)C(=O)N1Cc1ccc(C(C)(C)C)cc1 (configuration not stated)	i	20	2	2.2	-0.8
CCC1C(=O)C[C@H]2CCN3C(=O)CCCC1C23 (some centres not stated)	i	15	11	2.2	4.6
C[C@H]1CN([C@@H](C)CO)C(=O)c2cccc(NS(=O)(=O)c3ccc(F)cc3)c2O[C@@H]1CN(C)CC1CC1	i	5	3	-0.3	-5.3
CCNC(=O)Nc1ccc2c(c1)C(=O)N(C)[C@@H]1CC[C@H](CC(=O)NCc3ccccc3F)O[C@@H]1CO2	i	-2	-2	3.0	-0.4
N#Cc1ccc(-c2ccc([C@H]3[C@@H](CO)N4CCCCN(S(=O)(=O)c5ccccc5)C[C@@H]34)cc2)cc1	i	-3	-2	3.2	-2.9
COc1ccc(S(=O)(=O)N2CCCCCC2)cc1NC(=O)Cc1cccc(C(F)(F)F)c1	i	-1	0	1.7	-3.0
CC(C)NC(=O)Nc1ccc2c(c1)C(=O)N([C@@H](C)CO)C[C@H](C)[C@@H](CN(C)C(=O)NC1CCCCC1)OCCCC[C@@H](C)O2	i	1	2	0.4	-0.3
CC1CCCC(C)N1C(=O)COC(=O)CSc1ccc([N+](=O)[O-])cc1 (configuration not stated)	i	0	-1	-1.9	1.9
COCC(=O)N1CC2(CCN(C(C)=O)CC2)c2c([nH]c3cc(OC)ccc23)[C@H]1CO	i	4	2	-2.0	-2.3
CCCNC(=O)N1[C@@H](CO)[C@@H](c2ccccc2)C12CN(C(=O)C1CCCCC1)C2	i	5	8	1.5	-1.0
CCC(=O)N1CC[C@@H]2[C@@H](CO)N(C)c3ccc(-c4ccccc4F)cc3[C@@H]21	i	-11	-43	16	6.9
C[C@H]1CN([C@@H](C)CO)C(=O)c2cc(C#CCc3ccccc3)cnc2O[C@H]1CN(C)Cc1cccc(F)c1	i	-6	-39	24	5.1
C[C@H](CO)N1C[C@H](C)[C@@H](CN(C)Cc2ccc3c(c2)OCO3)Oc2ccc(NC(=O)CCN3CCOCC3)cc2CC1=O	i	-4	-1	8.9	10
C/C=C/c1ccc([C@@H]2[C@@H](CN(CC)C(C)=O)N(C(=O)C3CC3)[C@H]2CO)cc1	i	-1	10	-1.2	-0.3
COC(=O)[C@H]1[C@H](CO)[C@H]2Cn3c(ccc(-c4ccccc4F)c3=O)[C@H]2N1Cc1ccncc1	i	3	5	-0.4	-14
The list goes on:
SMILES	FGF22 binding	Ecoli rRNA inh	Ecoli rRNA inh OD600	Ecoli rRNA inh RFP	AF4-AF9 inh
COc1ccc(NC(=O)Nc2ccc3c(c2)C(=O)N([C@@H](C)CO)C[C@@H](C)[C@@H](CN(C)C(=O)Nc2ccc(C(F)(F)F)cc2)OCCCC[C@@H](C)O3)cc1	i	-2	3	-3.5	-8.8
O=C(OCC(=O)N(CCc1ccccc1)Cc1ccccc1)c1ccc(F)c(S(=O)(=O)N2CCOCC2)c1	i	1	2	3.6	-0.2
C[C@@H]1CN([C@@H](C)CO)C(=O)c2cc(NC(=O)NC3CCCCC3)ccc2O[C@@H]1CN(C)Cc1ccc(C(F)(F)F)cc1	i	-7	-11	1.6	0.3
C[C@H](CO)N1C[C@H](C)[C@H](CN(C)C(=O)Cc2ccccc2)Oc2cc(C#CC3(O)CCCC3)ccc2S1(=O)=O	i	-2	-17	-0.3	2.3
Oc1cccnc1CN1CCCCC1	i	39	7	13	1.4
CCN1CCN(c2sc(S(=O)(=O)CC)nc2S(=O)(=O)c2ccc(C)cc2)CC1	i	8	21	-0.3	-1.6
CCCNC(=O)C1(C)CCCN(C/C=C/c2ccccc2)C1 (configuration not stated)	i	13	9	1.5	-0.9
COCC(=O)Nc1ccc2c(c1)C(=O)N(C)C[C@H](OC)[C@@H](C)CN(Cc1ccccn1)[C@@H](C)CO2	i	2	-1	-1.5	-1.5
CC(C)C[C@H]1CN(CCCC[C@H]2CNC(=O)C(=O)N2CCC2CCCCC2)C(=O)C(=O)N1CC1CCCCC1	i	2	11	-3.9	2.8
O=C(C[C@H]1CC[C@H]2[C@@H](COC[C@@H](O)CN2C(=O)Nc2ccc(C(F)(F)F)cc2)O1)NCC1CC1	i	-60	-80	-24	1.5
CC(=O)c1ccc(OCc2nnn(CC(=O)O)c2-c2ccccc2)cc1	i	9	19	-11	-2.0
C[C@@H]1CN([C@@H](C)CO)C(=O)c2cc(NC(=O)CCC(F)(F)F)ccc2O[C@@H](C)CCCCO[C@@H]1CN(C)C(=O)c1ccccc1	i	-2	-1	-1.2	-8.1
CO[C@H]1CN(C)C(=O)c2cc(NC(=O)c3cccc(F)c3)ccc2OC[C@@H](C)N(C)C[C@H]1C	i	-3	4	-1.3	2.7
O=C(C[C@@H]1CC[C@@H]2[C@H](COC[C@@H](O)CN2C(=O)Nc2ccc(Cl)c(Cl)c2)O1)NCc1ccc(F)cc1	i	-56	-78	-22	0.8
COc1ccc(S(=O)(=O)Nc2ccc3c(c2)CC(=O)N([C@H](C)CO)C[C@@H](C)[C@@H](CN(C)Cc2ccc(Oc4ccccc4)cc2)O3)cc1	i	3	0	0.6	4.7
CN(C)C(=O)C[C@H]1CC[C@H]2[C@@H](COC[C@H](O)CN2CC2CCOCC2)O1	i	1	-6	0.4	-3.4
CCCC#Cc1ccc([C@H]2[C@@H](C#N)N(S(=O)(=O)c3cccc(F)c3)[C@@H]2CO)cc1	i	-46	-69	-4.5	1.0
O=C(C[C@H]1CC[C@H](NC(=O)c2cccc(F)c2)[C@H](CO)O1)NCc1ccccc1	i	7	-5	0.3	-1.2
CO[C@@H]1CN(C)C(=O)c2ccc(NC(C)=O)cc2OC[C@@H](C)N(C(=O)c2ccncc2)C[C@@H]1C	i	1	1	-2.0	-0.8
